CtBP-E1A inh = inhibitors of CtBP/E1A interaction; AlphaScreen GST-E1A/His-CtBP binding, 1536-well; hits give low values; control for the full effect not named in the record; activity change, % (concentration not given with the values); hit rate 0.49% among 340,000; AID 651724; in the data active means activity change below about -65%; inconclusive means about -30% to -65%; inactive means above about -30%; further: on the % scale 0 is the no-effect control and ±100 the full control effect
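GST-E1A and His-tagged CtBP (125 nM each as 5X stock) were preincubated with pin-transferred compound for 2 h at 37 °C in the dark, then glutathione donor and nickel acceptor beads were added for 1 h before AlphaScreen reading.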
Six1-Eya2 blk = Six1/Eya2 interaction inhibition. Q15475+O00167. AlphaScreen GST-Six1/His-Eya2 binding, biochemical; hits give low values; control for the full effect not named in the record. activity change, % (concentration not given with the values). hit rate 0.56% among 360,000; in the data active = activity change below about -65%; inconclusive = about -30% to -65%; inactive = above about -30%; further: on the % scale 0 is the no-effect control and ±100 the full control effect
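Six1/Eya2 binding was read as AlphaScreen signal after compounds were pinned into GST-Six1 plus His-tagged Eya2 (5X stock 250/500 nM) in pH 8.0 Tris/NaCl/TCEP buffer, beads added, then incubated 1 h, 37 C, dark.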
TRPML1 blocker = blocks the human TRPML1 channel; hit rate 0.02% among 390,000; TRPML1-inducible cells, Ca2+ dye fluorescence, FDSS; hits give low values; inhibition of EC80 agonist-evoked calcium signal; activity change, negative = inhibition, % (test concentration not listed); in the data active means activity change below about -50%; inconclusive means about -30% to -50%; inactive means above about -30%;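 further: stimulus is agonist 54-4 at its EC80 concentration; on the % scale 0 is the no-effect control and ±100 the full control effect; compound concentration not given in the record; the text of the record puts the active cut at -80%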
Target sequence (Q9GZU1 whole entry, looked up): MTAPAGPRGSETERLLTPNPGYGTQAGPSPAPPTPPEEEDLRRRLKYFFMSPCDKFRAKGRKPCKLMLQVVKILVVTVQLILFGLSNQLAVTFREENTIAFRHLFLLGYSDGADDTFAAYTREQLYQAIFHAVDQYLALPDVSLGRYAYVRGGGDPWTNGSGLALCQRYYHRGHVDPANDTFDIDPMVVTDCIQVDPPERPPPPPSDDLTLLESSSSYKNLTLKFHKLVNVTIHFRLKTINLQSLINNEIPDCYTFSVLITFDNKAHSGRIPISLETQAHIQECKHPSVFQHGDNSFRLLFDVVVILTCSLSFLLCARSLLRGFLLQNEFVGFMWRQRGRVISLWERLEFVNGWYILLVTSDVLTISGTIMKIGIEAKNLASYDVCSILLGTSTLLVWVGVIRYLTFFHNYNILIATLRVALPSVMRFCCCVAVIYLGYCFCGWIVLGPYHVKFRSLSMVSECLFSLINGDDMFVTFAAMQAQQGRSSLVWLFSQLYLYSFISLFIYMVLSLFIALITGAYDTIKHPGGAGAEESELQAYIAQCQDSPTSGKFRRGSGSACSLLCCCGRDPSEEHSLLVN
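Tet-induced TRPML1-DL cells loaded with Ca8 no-wash calcium dye were read kinetically on FDSS. Compound addition was followed by EC80 agonist 54-4 (4 uM final); inhibition was read over 110 s.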
TRPML1 ag = activates the human TRPML1 channel. AID 624414. TRPML1-expressing cells, Ca2+ dye fluorescence, FDSS; host cell line not named in the record; reference of the full effect not given here. Q9GZU1. activation, % (concentration not given with the values). hit rate 0.12% among 410,000; in the data active = activation above about 50%; inconclusive = about 30% to 50%; inactive = below about 30%; further: 0% is about no effect; the text of the record puts the active cut at 80%
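TRPML1-DL cells, Tet-induced overnight (~16 h, 37 degrees C), loaded 45-90 min at room temperature with Ca8 no-wash calcium dye plus quencher. FDSS fluorescence: 10 s baseline, compound pin-transfer, 110 s agonist read, then EC80 54-4 (4uM final) and 110 s antagonist read.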
D2 agonist = activates the human D2 dopamine receptor; activation, % (test concentration not listed); P14416; hit rate 0.084% among 360,000; AID 624465; DiscoveRx PathHunter D2 beta-arrestin, luminescence, 90 min; 100% = 57 uM dopamine signal; in the data active = activation above about 40%; inconclusive = about 15% to 40%; inactive = below about 15%; further: compound concentration not given in the record; the text of the record calls up to 30% inactive
Target sequence (P14416 whole entry, looked up): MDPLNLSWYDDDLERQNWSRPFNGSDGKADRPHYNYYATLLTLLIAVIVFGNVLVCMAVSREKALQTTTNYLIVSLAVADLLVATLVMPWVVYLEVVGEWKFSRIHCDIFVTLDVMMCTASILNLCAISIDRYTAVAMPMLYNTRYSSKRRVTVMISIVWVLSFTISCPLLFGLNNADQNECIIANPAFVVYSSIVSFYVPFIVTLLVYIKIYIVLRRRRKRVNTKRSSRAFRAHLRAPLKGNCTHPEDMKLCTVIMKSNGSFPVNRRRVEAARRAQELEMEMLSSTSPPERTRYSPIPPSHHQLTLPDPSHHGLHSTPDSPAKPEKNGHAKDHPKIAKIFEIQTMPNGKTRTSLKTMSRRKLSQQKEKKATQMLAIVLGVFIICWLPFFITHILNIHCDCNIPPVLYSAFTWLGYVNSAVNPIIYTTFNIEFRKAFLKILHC
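Agonist mode: compounds alone added to overnight-plated D2 PathHunter cells for 90 min at 37 C, with 57 uM final dopamine (EC100) defining full response. Beta-arrestin recruitment detected by chemiluminescent reagent, read after 1 h at ambient temperature.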
PINK1 expr mod = modulators of PINK1 expression; Potency, µM (top dose mostly 76.6 µM), for inactives: top-dose activation (PINK1 increase), hits mostly activators; PINK1 immunofluorescence, high-content cytometry, 24 h; hit rate 0.2% among 410,000; active = well fitted activation curve with a large enough effect; inconclusive = small, poorly fitted or top-dose-only effect; inactive = flat fitted curve, though single readings scatter; cell line not stated here;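 further: potency means the concentration at half of the fitted maximal effect; % of control where 0% means no effect; nearly all actives have a fitted effect of over 65% in size; a mitochondrial uncoupler was the plate control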
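Stable cell line treated 24 h with compounds at 5 concentrations (CCCP controls), then fixed and immunostained for PINK1 plus nuclear and cell stains; PINK1 immunofluorescence quantified by laser-scanning microplate cytometry.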
* = called active by the depositor; ? = inconclusive; / = not tested or not shown; [ ] = another dose, or the depositor's remark. Outcome played no part in choosing rows; overall some 1% were active at least once.

The opening 6 entries as a preview:
SMILES | CtBP-E1A inh | Six1-Eya2 blk | TRPML1 blocker | TRPML1 ag | D2 agonist | PINK1 expr mod
O=c1ccn([C@@H]2O[C@H](COS(=O)(=O)O)[C@@H](O)[C@H]2O)c(=O)[nH]1 | / | 0.4 | -17.5 | 0.3 | -3.2 | 0.0%
CCc1nnc(NC(=O)CCC(=O)N2CCN(S(=O)(=O)c3ccc(OC)cc3)CC2)s1 | 0.2 | 3.2 | -4.7 | -0.7 | 0.4 | -1.4%
Cc1ccc(C2CC(=O)C(C=NCCN3CCN(CC(=O)Nc4cc(C)cc(C)c4)CC3)=C(O)C2)cc1 (stereo not given) | / | -2.0 | -2.7 | 0.2 | 2.6 | 0.7%
CN1CCN(CCCNC(=O)C2CC(=O)N(C3CCCCC3)C2)CC1 (stereo not given) | 4.4 | -0.9 | 12.9 | 0.3 | -7.0 | -1.0%
CN(CCN1CCOCC1)C(=O)c1cc(COc2ccc(F)cc2Cl)on1 | 2.3 | 4.3 | -5.3 | 0.0 | -0.5 | 2.2%
CSc1nc(COC(=O)NC(C)C)c(COC(=O)NC(C)C)n1Cc1ccccc1 | 1.0 | -0.3 | / | -1.2 | -4.3 | -0.3%

The list itself (from the top)
SMILES | CtBP-E1A inh | Six1-Eya2 blk | TRPML1 blocker | TRPML1 ag | D2 agonist | PINK1 expr mod
O=c1ccn([C@@H]2O[C@H](COS(=O)(=O)O)[C@@H](O)[C@H]2O)c(=O)[nH]1 | / | 0.4 | -17.5 | 0.3 | -3.2 | 0.0%
CCc1nnc(NC(=O)CCC(=O)N2CCN(S(=O)(=O)c3ccc(OC)cc3)CC2)s1 | 0.2 | 3.2 | -4.7 | -0.7 | 0.4 | -1.4%
Cc1ccc(C2CC(=O)C(C=NCCN3CCN(CC(=O)Nc4cc(C)cc(C)c4)CC3)=C(O)C2)cc1 (stereo not given) | / | -2.0 | -2.7 | 0.2 | 2.6 | 0.7%
CN1CCN(CCCNC(=O)C2CC(=O)N(C3CCCCC3)C2)CC1 (stereo not given) | 4.4 | -0.9 | 12.9 | 0.3 | -7.0 | -1.0%
CN(CCN1CCOCC1)C(=O)c1cc(COc2ccc(F)cc2Cl)on1 | 2.3 | 4.3 | -5.3 | 0.0 | -0.5 | 2.2%
CSc1nc(COC(=O)NC(C)C)c(COC(=O)NC(C)C)n1Cc1ccccc1 | 1.0 | -0.3 | / | -1.2 | -4.3 | -0.3%
Nc1c2c(=O)[nH]c(O)cc2nn1-c1ccccc1 | -66.3* | 6.8 | -5.0 | 0.7 | -0.9 | -1.9%
CC1CCCCC1NC(=O)COC(=O)c1ccc(S(=O)(=O)N2CCOCC2)cc1 (stereo not given) | 3.6 | 29.1 | 8.6 | 0.0 | -1.7 | -1.2%
C[C@]12c3[nH]c4cc(-c5ccco5)ccc4c3CCN1C(=O)[C@@H](CC(=O)NCCCn1ccnc1)C[C@@H]2C(=O)N1CCCCC1 | -11.8 | -15.1 | 4.2 | 0.7 | 2.2 | 1.6%
Cc1ccc(S(=O)(=O)N2CCN(C(=O)COC(=O)c3ccc(Cl)c(S(N)(=O)=O)c3)CC2)c(C)c1 | 7.5 | 5.7 | -5.2 | 0.8 | 1.1 | -0.1%
COc1cc(C(=S)N2CCOCC2)cc(OC)c1OC(=O)c1ccccc1Cl | -9.1 | -23.4 | 87.9 | 0.0 | 1.4 | 2.2%
Cc1ccc(C)c(OCCC(=O)OCC(=O)Nc2ccc(Cl)cn2)c1 | -4.8 | 3.0 | -4.5 | 3.0 | -2.4 | 3.9%
O=C(CCc1ccccc1)N1CCCC(Nc2ccc(F)cc2)C1 (stereo not given) | -3.7 | -8.1 | 28.9 | 0.4 | 0.1 | 1.1%
Fc1ccc(CN2CCCN(Cc3nc(-c4ccc5c(c4)OCO5)no3)CC2)cc1 | / | -20.0 | 16.5 | 0.8 | -1.8 | 0.6%
CN(Cc1ccccc1)C(=O)COC(=O)CCNC(=O)c1ccccc1Cl | 2.0 | -2.3 | -11.7 | -1.3 | -4.5 | -0.6%
CCN(CC)CCNC(=O)c1ccc(NC(=O)c2ccc(F)cc2F)cc1 | 4.3 | -2.7 | 13.6 | 0.3 | 0.5 | 3.1%
CCOC(=O)N1CCN(C(=O)c2noc3c2COc2ccccc2-3)CC1 | 0.0 | 0.8 | 29.9 | 1.8 | 3.7 | 5.4%
Cc1c(NC2=CC(=O)CCC2)c(=O)n(-c2ccccc2)n1C | 4.0 | 1.2 | 17.9 | 0.0 | 1.1 | -0.6%
CCc1ccccc1OCC(=O)OCC(=O)N1CC(=O)Nc2ccccc21 | / | 0.4 | 21.3 | 3.9 | 2.3 | -1.0%
COc1cc(SC)ccc1C(=O)Nc1ccccn1 | -1.7 | -0.7 | -5.7 | 0.0 | -0.4 | -2.4%

Reprinted from the part before: two entries; new compounds follow.
SMILES | CtBP-E1A inh | Six1-Eya2 blk | TRPML1 blocker | TRPML1 ag | D2 agonist | PINK1 expr mod
CCc1ccccc1OCC(=O)OCC(=O)N1CC(=O)Nc2ccccc21 | / | 0.4 | 21.3 | 3.9 | 2.3 | -1.0%
COc1cc(SC)ccc1C(=O)Nc1ccccn1 | -1.7 | -0.7 | -5.7 | 0.0 | -0.4 | -2.4%
Cc1occc1-c1nnc(SCC(=O)N2CCCCC2)o1 | 0.0 | 10.2 | -8.2 | 0.0 | -5.5 | 1.9%
COc1ccc2nc(NC(=O)Cc3ccc(OC)c(S(=O)(=O)N4CCOCC4)c3)sc2c1 | -17.7 | -20.5 | 5.8 | -0.8 | -0.4 | 0.8%
CC(=O)c1c(C)[nH]c(C(=O)N2CCN(c3ccccn3)CC2)c1C | 1.7 | 2.5 | -7.1 | -0.7 | 1.2 | 5.4%
COc1cc2nc(CN3CCOCC3)n(CC(=O)N3CCCCCC3)c(=O)c2cc1OC | 0.5 | -1.3 | 5.4 | 0.3 | -2.7 | 0.0%
CC(NC(=O)COC(=O)c1cccc(S(=O)(=O)N2CCCC2)c1)c1ccccc1 (stereo not given) | -1.5 | -2.4 | 5.7 | 0.0 | -4.3 | 0.5%
Cc1c(Cl)cccc1NC(=O)Nc1ccn(C)n1 | 12.7 | -3.2 | -0.6 | 0.1 | -6.1 | 0.6%
C/C(=C\c1ccc(C(=O)O)cc1)c1ccc2c(c1)C(C)(C)CCC2(C)C | -0.4 | 6.4 | 15.1 | 0.1 | 0.7 | 2.1%
Cc1cc(C)cc(C(=O)NN2CCN(C)CC2)c1 | 1.7 | 5.1 | -21.3 | 0.4 | -5.6 | 1.8%
COc1ccc(C(=O)NC2CCSc3ccccc32)cc1 (stereo not given) | 1.3 | -4.5 | 19.3 | 0.2 | 1.0 | -1.6%
C[C@H](CO)N1C[C@H](C)[C@@H](CN(C)C(=O)c2ccc3c(c2)OCO3)Oc2cc(/C=C/c3ccccc3)ccc2S1(=O)=O | ? | ? | 5.7 | 1.7 | 3.0 | 1.4%
COc1cc(C(=O)N/N=C(\Cc2ncc[nH]2)c2ccccc2)cc(OC)c1OC | 6.1 | -3.2 | 1.0 | 2.6 | -8.4 | 1.3%
COC(=O)CNC(c1ccccc1)c1cc(Br)ccc1NC(=O)OCc1ccccc1 (stereo not given) | 12.6 | 8.8 | -11.5 | 2.0 | -0.2 | 8.6%
CCn1c(COc2ccccc2OC)nnc1SCC(=O)NC1CCCC1 | -2.7 | 16.7 | -9.0 | -1.8 | -10.2 | 3.5%
C/C(=C\C(=O)O)CC(=O)O | 39.9 | 41.3 | ? | 1.0 | -1.6 | -0.2%
CCN(C(=O)COC(=O)c1ccc(Cl)nc1)C1CCS(=O)(=O)C1 (stereo not given) | -11.6 | 11.4 | 2.9 | -0.4 | -7.3 | 3.2%
CCCCCOc1cccc(C2C(C(=O)c3cccs3)=C(O)C(=O)N2CCN2CCOCC2)c1 (stereo not given) | -0.3 | 1.8 | 37.3 | -0.8 | -6.7 | 5.3%
O=S(=O)(NCC1CCCO1)c1cc(Cl)ccc1Br (stereo not given) | -5.2 | 2.6 | -17.6 | -0.7 | -1.9 | 0.8%[38.3 µM]
CCOC(=O)c1c(NC(=O)C2COc3ccccc3O2)sc2c1CCN(Cc1ccccc1)C2 (stereo not given) | -9.3 | -4.0 | 34.6 | 1.8 | -1.4 | 6.4%
CC(C)c1cc(C(N)=O)c(NC(=O)C2CCC2)s1 | 25.6 | 8.4 | -11.3 | 1.2 | -3.5 | 1.5%[38.3 µM]
CN(C)CCCNC(=O)c1cccc(-c2ccc3nccn3c2)c1 | -2.1 | 3.4 | / | -0.1 | -6.0 | 0.5%
C[N+](C)(C)CCOc1ccc([N+](=O)[O-])cc1 | 1.9 | 6.5 | 11.0 | 0.4 | -1.7 | 0.8%
Cc1ccccc1-n1nc2c(c1NC(=O)c1cccc(F)c1)CS(=O)C2 (stereo not given) | -0.1 | -3.1 | 6.0 | -0.7 | -4.4 | 0.7%
COC(=O)C1=C(C)N=C2SCCC(=O)N2C1c1ccc(OC(=O)c2ccco2)cc1 (stereo not given) | -1.7 | -4.7 | 9.4 | -1.2 | -1.5 | 3.2%
COc1cc(S(=O)(=O)NCCCN2CCOCC2)ccc1-n1cnnn1 | 1.6 | 5.9 | -1.8 | 0.2 | -0.2 | 0.8%
CSc1ccc(CCNC(=O)C2CCN(c3ncnc4c3nc3n4CCCCC3)CC2)cc1 | / | / | 1.1 | 2.4 | / | 0.4%
CCOc1cccc(C(=O)Nc2ccccc2C(=O)N2CCN(C)CC2)c1 | -0.5 | 12.1 | 12.7 | -0.3 | 1.1 | 2.9%
CCS(=O)(=O)N1CCN(S(=O)(=O)c2ccccc2)CC1 | 0.4 | 0.0 | -2.4 | -0.3 | -1.8 | 1.3%
COc1cccc(CN(C(=O)c2cccc(C)c2)C2CCS(=O)(=O)C2)c1 (stereo not given) | / | / | -22.8 | -0.5 | / | -1.9%
O=C(COC(=O)c1ccc(O)cc1O)c1ccc2c(c1)OCCO2 | / | -0.4 | 31.0 | 1.4 | 11.3 | 2.5%
Cc1c(NC(=O)C(=O)N/N=C/c2cccs2)c(=O)n(-c2ccccc2)n1C | 4.6 | -25.9 | 23.4 | -0.4 | 1.4 | -0.1%
CCOC(=O)C1=CN(CC)S(=O)(=O)NC1c1ccccc1 (stereo not given) | 9.4 | 3.8 | -15.0 | 0.8 | -2.2 | 1.6%
Cc1ccc(NC(=O)c2ccc3c(c2)nnn3C)cc1 | / | -2.2 | 1.6 | -0.7 | -1.3 | 8.1%
C#CCOC(=O)CCC(=O)NCCc1ccccc1 | -7.0 | 5.8 | -16.5 | 0.1 | 6.5 | 1.2%
COc1ccc(N2CCN(c3cc(C)c4ccccc4n3)CC2)cc1 | 0.0 | -14.4 | -1.5 | 2.2 | -7.2 | 3.9%
O=C(CSc1nc(-c2ccccc2)c(-c2ccccc2)[nH]1)NCc1ccco1 | -13.2 | -10.0 | -2.1 | 4.6 | 1.2 | 4.6%[38.3 µM]
CCOC(=O)C1CCCN(C(=O)c2cccc(OC(F)(F)F)c2)CC1 (stereo not given) | -4.4 | -3.3 | / | -0.8 | -4.9 | 1.0%
O=C(NC(=S)NNS(=O)(=O)c1ccccc1)c1cccnc1 | 0.0 | 3.3 | 16.5 | 0.1 | -0.8 | -1.8%

Screens: PubChem, National Center for Advancing Translational Sciences (NCATS)
